GIV Gai3 FP – inhibitors of GIV peptide binding to Galpha-i3, primary screen, biochemical, fluorescence polarization, FITC-GIV GBA peptide, rat Galphai3; Guanine nucleotide-binding protein G(i) subunit alpha-3 (Rattus norvegicus), P08753; 90 min; stronger effect = lower value; scaled: aluminum fluoride 0%, vehicle 100%; percent of control (FP), % (no concentration beside the values); 210,000 tested, 0.42% active; AID 1224905, 2016;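 active = replicate mean at 85% of control or lower, very high polarization wells dropped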;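 note: wells of about 15 µL received 100 nL stock; the first replicate is given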
Target sequence (P08753 whole entry, looked up): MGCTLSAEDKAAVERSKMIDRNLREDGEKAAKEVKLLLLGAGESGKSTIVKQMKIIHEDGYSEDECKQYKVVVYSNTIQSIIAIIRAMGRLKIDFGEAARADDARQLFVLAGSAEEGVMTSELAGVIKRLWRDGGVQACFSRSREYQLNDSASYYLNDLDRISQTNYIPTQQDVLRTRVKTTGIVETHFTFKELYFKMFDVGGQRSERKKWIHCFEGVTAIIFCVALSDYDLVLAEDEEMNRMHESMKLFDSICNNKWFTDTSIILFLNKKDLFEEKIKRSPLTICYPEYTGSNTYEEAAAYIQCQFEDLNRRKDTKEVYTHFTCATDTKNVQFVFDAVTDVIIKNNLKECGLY
Numbers without * were called inactive. A portion of the library, so the mix of outcomes need not match the whole.

SMILES	GIV Gai3 FP
CCc1nc(-c2csc(S(=O)(=O)Nc3ccc(S(N)(=O)=O)cc3)c2)no1	102
Cc1c(C(=O)N2CCN(c3cccc(Cl)c3)CC2)sc2ncn(CC(=O)N3CCCCC3)c(=O)c12	106
CCCS(=O)(=O)N1CCCC1c1cc(CC)no1 (configuration not stated)	101
O=S(=O)(Nc1ccc(N2CCOCC2)cc1)c1ccc(-c2nnc(C3CCC3)o2)o1	105
CCc1cc2c(Nc3ccc(F)c(Cl)c3)ncnc2s1	101
CCOc1ccccc1N(C)S(=O)(=O)c1ccc2[nH]cc(C(=O)N3CCN(c4ccc(OC)cc4)CC3)c(=O)c2c1	118
N#Cc1cc(C#N)c(SCC(=O)OCN2C(=O)c3ccccc3C2=O)nc1N	103
Cc1ccc(-c2csc3c2ncn2c(=O)n(CC(=O)Nc4ccc5c(c4)OCO5)nc32)cc1	100
CC(C)C(=O)N1CCc2c(c(C(=O)N3CCC(C(=O)NC4CCCCC4)CC3)nn2C)C1	103
O=C(Nc1ccc(SCc2nnc(-c3ccccc3)o2)cc1)Nc1ccc(F)c(Cl)c1	102
COc1ccc(C(=O)Cn2c(Br)nc3c2c(=O)n(C)c(=O)n3C)cc1	117
COc1ccc(CCNC(=O)C2CCCN(c3nc4ccc(Br)cc4[nH]3)C2)cc1OC (configuration not stated)	100
O=C1C(=O)N(c2ccc(Br)cn2)C(c2ccc([N+](=O)[O-])cc2)/C1=C(\O)c1ccc(Cl)cc1 (configuration not stated)	112
Cc1ccc(-c2nc(C)c(C(=O)N3CCC(CC(=O)NCc4ccccc4)CC3)s2)cc1	99
COc1ccc2c(c1)C1(Nc3ccccc3C(=O)N1c1ccccc1)C(=O)N2 (configuration not stated)	109
COc1ccc(NC(=O)c2nnc(C3CCN(C(=O)c4ccccc4F)CC3)s2)cc1	104
OC(CN1CCN(c2ccccn2)CC1)c1ccc2c(c1)OCO2 (configuration not stated)	106
CCOC(=O)C1=C(C)NC2=C(C(=O)c3ccccc32)C1c1ccc(OCc2ccccc2)cc1 (configuration not stated)	108
CN(C)C1=Nc2ncccc2Oc2ccccc21	103
O=C1C2C(c3ccc(Br)cc3)OC3(C(=O)c4ccccc4C3=O)C2C(=O)N1c1ccccc1Cl (configuration not stated)	113
Cc1cccc(OCc2nc(-c3ccc(NC(=O)c4ccco4)cc3)no2)c1C	105
COc1ccc(OC)c(NC(=O)Nc2nc3c(s2)CN(S(=O)(=O)c2ccccc2)CC3)c1	107
CC(=O)C1=NN(c2ccc(C)cc2)C2(S1)c1ccccc1C(c1ccc(C)cc1)=NN2c1ccccc1 (configuration not stated)	112
O=C(Nc1ccc(C(=O)O)cc1)/C(=C\c1ccc2c(c1)OCO2)NC(=O)c1ccccc1	118
CCOC(=O)/C(C(=O)Nc1ccccc1Cl)=C1/NC(C)(C)Cc2ccccc21	114
Cc1ccc(-c2ccc(N3CC=C(c4ccccc4)CC3)nn2)cc1S(=O)(=O)N1CCCC1	101
COCCN(Cc1ccc(C)cc1)Cc1cc(=O)n2nc(C3CC3)sc2n1	108
N=C1S/C(=C\c2ccc(-c3ccc(F)cc3F)o2)C(=O)N1c1nccs1	103
CCNC(=O)c1cc2c(n(-c3ccc(F)cc3)c1=O)CCCC2=O	101
Cc1cc(C2CCCN2C(=O)c2cc(-c3ccc4c(c3)OCO4)on2)no1 (configuration not stated)	106
NS(=O)(=O)c1ccc(N2C(=O)c3cc([N+](=O)[O-])cc4cc([N+](=O)[O-])cc(c34)C2=O)cc1	119
Cc1cc(N2CCN(C3CCCCC3)CC2)n2c(nc3ccccc32)c1C#N	117
CCc1ccc(-c2nc(CS(=O)CC(=O)NC(C)C)c(C)o2)cc1 (configuration not stated)	106
CCCCN1CCN(S(=O)(=O)c2ccccc2-c2nc(-c3ccc(F)cc3)no2)CC1	99
CCOC(=O)c1c(S(=O)(=O)N2CCC(C(=O)NC3CCCc4ccccc43)CC2)c(C)n(C)c1C (configuration not stated)	105
O=C(NCc1ccco1)c1ccc(N2CC3CC(C2)c2cccc(=O)n2C3)c(NC(=O)c2ccc(Br)o2)c1 (configuration not stated)	110
CCc1nc2c(sc3nc4c(cc32)COC(C)(C)C4)c(=O)o1	112
CCOC(=O)C1(C(F)(F)F)N=C(c2ccccc2F)OC(N(C)C)=N1 (configuration not stated)	104
COCCn1c(CCCC(=O)NC2CCCC2)nc2cccnc21	106
O=C1C(=O)N(CCN2CCOCC2)C(c2ccc(F)cc2)/C1=C(\O)c1ccc(Cl)cc1 (configuration not stated)	111
O=C(NCc1c(-c2ccccc2)nc2n1CCS2)C1CC1	95
Cc1nn(-c2nc3ccc(Br)cc3s2)c2c1C(c1cc(F)cc(F)c1)CC(=O)N2 (configuration not stated)	99
COC(=O)CN1C(=O)C2(C(C#N)=C(N)Oc3n[nH]c(-c4cccs4)c32)c2ccccc21 (configuration not stated)	106
Cc1cccc(NC(=O)CSc2nc(N)c(C#N)c(-c3ccc(F)cc3)c2C#N)c1	123
COCCNS(=O)(=O)c1cc(-c2cc(C(F)(F)F)on2)sc1C	103
CCOC(=O)C1=C(N)n2c(s/c(=C\c3ccccc3F)c2=O)=C(C#N)C1c1ccccc1F (configuration not stated)	111
Cc1nn(-c2ccc3nncn3n2)c(C)c1CCC(=O)Nc1ccc(F)cc1	104
CCNC(=O)N1CCCN(Cc2ccsc2)CC1	98
CCCCCn1c(SCC(=O)NCc2ccccc2Cl)nc2cc(C(=O)N3CCC(C(N)=O)CC3)ccc2c1=O	99
O=C(OCc1c(F)cccc1Cl)c1cccnc1SCc1ccc(Cl)cc1	112

The listing continues.
SMILES	GIV Gai3 FP
CC1CCN(S(=O)(=O)c2ccc(CNC(=O)c3ccsc3)s2)CC1	101
O=c1oc2c([N+](=O)[O-])cccc2cc1-c1nc(-c2ccc(Cl)cc2)cs1	111
Cc1ccc(C(=O)N2CCc3ccc(CNC(=O)NCc4ccccc4)cc32)cc1	105
CCC(C)NS(=O)(=O)c1c(C)[nH]c(C)c1-c1nnc(C)o1 (configuration not stated)	104
CCOc1ccc(/C(O)=C2\C(=O)C(=O)N(c3nccs3)C2c2cccc(Oc3ccccc3)c2)cc1 (configuration not stated)	106
COc1ccc(C2=C(c3ccc(OC)cc3)C3C(=O)C2C2C(=O)N(c4cccc5ccccc45)C(=O)C32)cc1 (configuration not stated)	114
O=C(NC1CC1)C1CCCN(c2ncnc3c2oc2ccccc23)C1 (configuration not stated)	107
Cc1cc(C)cc(C(=O)NCC(=O)NCc2cscn2)c1	108
O=C(CSc1nnc2c3ccccc3nc(-c3ccccc3)n12)Nc1cc(F)ccc1F	101
CCn1nc(C)c2ccn(CC(=O)NCc3ccc(OC)c(OC)c3)c(=O)c21	97
O=C(CSC1=NS(=O)(=O)c2ccccc2N1)Nc1ccccc1F	107
O=C(CN1CCOCC1)Nc1nnc(SCC(=O)N2c3ccccc3Sc3ccccc32)s1	112
CCN1C(C)=C(C)S/C1=C1\SC(=S)N(NC(C)=O)C1=O	106
Cc1nn(-c2ccc3nnc(C)n3n2)c2c1C(c1ccc(O)cc1)CC(=O)N2 (configuration not stated)	106
COc1ccc(S(=O)(=O)N2CCc3nc(NC(=O)Nc4ccccc4OC)sc3C2)cc1	99
COc1cccc(N/C(SCc2cccc(F)c2)=C(/C#N)C(=O)NCc2ccccc2)c1	100
CS(=O)(=O)OCC1OC(n2ccc(=O)[nH]c2=O)C(OS(C)(=O)=O)C1OS(C)(=O)=O (configuration not stated)	108
CCOc1ccc2c(c1)C(=NN=C(N)N)c1cc(OCC)ccc1-2	106
COc1ccc(Nc2nc(N3CCOCC3)c3ccccc3n2)cc1	103
CCC(C)NC(=O)Cn1ncc2c(c1=O)N(C)C(=O)CS2 (configuration not stated)	96

18 compounds out of the list, arranged by SMILES length, ascending:
SMILES	GIV Gai3 FP
CCNC(=O)N1CCCN(Cc2ccsc2)CC1	98
Cc1cc(C)cc(C(=O)NCC(=O)NCc2cscn2)c1	108
COc1ccc(Nc2nc(N3CCOCC3)c3ccccc3n2)cc1	103
OC(CN1CCN(c2ccccn2)CC1)c1ccc2c(c1)OCO2 (configuration not stated)	106
CCc1nc2c(sc3nc4c(cc32)COC(C)(C)C4)c(=O)o1	112
O=C(OCc1c(F)cccc1Cl)c1cccnc1SCc1ccc(Cl)cc1	112
COCCN(Cc1ccc(C)cc1)Cc1cc(=O)n2nc(C3CC3)sc2n1	108
CCOC(=O)C1(C(F)(F)F)N=C(c2ccccc2F)OC(N(C)C)=N1 (configuration not stated)	104
Cc1cccc(OCc2nc(-c3ccc(NC(=O)c4ccco4)cc3)no2)c1C	105
CCn1nc(C)c2ccn(CC(=O)NCc3ccc(OC)c(OC)c3)c(=O)c21	97
COc1ccc(NC(=O)c2nnc(C3CCN(C(=O)c4ccccc4F)CC3)s2)cc1	104
COc1ccc(S(=O)(=O)N2CCc3nc(NC(=O)Nc4ccccc4OC)sc3C2)cc1	99
Cc1ccc(-c2nc(C)c(C(=O)N3CCC(CC(=O)NCc4ccccc4)CC3)s2)cc1	99
O=C1C(=O)N(CCN2CCOCC2)C(c2ccc(F)cc2)/C1=C(\O)c1ccc(Cl)cc1 (configuration not stated)	111
Cc1ccc(-c2csc3c2ncn2c(=O)n(CC(=O)Nc4ccc5c(c4)OCO5)nc32)cc1	100
CC(=O)C1=NN(c2ccc(C)cc2)C2(S1)c1ccccc1C(c1ccc(C)cc1)=NN2c1ccccc1 (configuration not stated)	112
CCCCCn1c(SCC(=O)NCc2ccccc2Cl)nc2cc(C(=O)N3CCC(C(N)=O)CC3)ccc2c1=O	99
COc1ccc(C2=C(c3ccc(OC)cc3)C3C(=O)C2C2C(=O)N(c4cccc5ccccc45)C(=O)C32)cc1 (configuration not stated)	114

The list goes on:
SMILES	GIV Gai3 FP
Cc1ccc(CNc2ccc3nnc(C4CCC4)n3n2)o1	111
O=C1C(=O)N(c2nccs2)C(c2cccc(Br)c2)/C1=C(/O)c1ccc(F)cc1 (configuration not stated)	120
CCCOc1ccc(CN2CCCC2c2c(C)noc2CC)cc1OC (configuration not stated)	104
CCOc1ccccc1NC(=O)c1c(NCc2ccc(OC)c(OC)c2OC)sc2c1CCCCC2	109
Cc1cc(=O)oc2c3c(ccc12)OCN(c1ccc(F)cc1)C3	115
COc1ccc(-c2c[n+](CC(=O)c3ccccc3)c3n2CCCCC3)cc1	108
CC(=O)Oc1ccc(N2C(=O)C3C4C=CC(CC4)C3C2=O)cc1 (configuration not stated)	108
Cc1nn(-c2ccc3nncn3n2)c2c1C(c1ccc(C(C)C)cc1)CC(=O)N2 (configuration not stated)	99
O=C1COc2ccc(S(=O)(=O)N3CCOCC3)cc2N1Cc1noc(C2CCC2)n1	100
CC1=NN(c2ccccc2)C(=O)C1C(=O)c1ccc(Br)cc1 (configuration not stated)	109
CCc1ccc(NC(=O)N2CCN(c3nc4ccccc4n4cccc34)CC2)cc1	103
CCOc1ccc(C2C(N3C(=O)c4ccc([N+](=O)[O-])cc4C3=O)C(=O)N2c2ccc(C)c(Cl)c2)cc1 (configuration not stated)	109
Cc1cn(C2CC(OC(=O)c3ccccc3)C(COC(=O)c3ccccc3)O2)c(=O)[nH]c1=O (configuration not stated)	106
COc1cc(C2Nc3ccc4ccccc4c3C3=C2C(=O)CC(C)(C)C3)ccc1OCc1cc2c(cc1Cl)OCO2 (configuration not stated)	111
COC(=O)C1=C(C(=O)OC)SC(=C2C(=S)C(C)(C)N(C(=O)COc3ccccc3)c3ccc(OC)cc32)S1	105
CCOc1ccc(NC(=O)CSC2=C(C#N)C(c3ccc(F)cc3)CC(=O)N2)cc1 (configuration not stated)	104
NC(=O)c1ccccc1NC(=O)c1ccc(=O)n(Cc2ccccc2F)c1	102
CCOc1ccc(-c2csc(Cc3nc(-c4ccc(C)cc4)no3)n2)cc1	106
COc1ccc(/C=C2\C=C(c3ccccc3)N(c3ccc(O)c(C(=O)O)c3)C2=O)cc1	118
Cc1cc(C)cc(C(=O)Nc2c(C)nc3c(C)cccn3c2=O)c1	98

Next section; the last two above are carried over.
SMILES	GIV Gai3 FP
COc1ccc(/C=C2\C=C(c3ccccc3)N(c3ccc(O)c(C(=O)O)c3)C2=O)cc1	118
Cc1cc(C)cc(C(=O)Nc2c(C)nc3c(C)cccn3c2=O)c1	98
COC(=O)C1=C(C(=O)OC)SC(=C2C(=S)C(C)(C)N(C)c3ccc(C)cc32)S1	119
Cn1cnc2c1c(=O)n(Cc1ccc(Br)cc1)c(=O)n2C	102
Cc1cc(C2CCCN2C(=O)c2ccnn2C)on1 (configuration not stated)	102
CCC1(C)CC(CC(=O)O)(c2ccc(F)cc2)CCO1 (configuration not stated)	109
COc1ccc(NC(=O)CSc2nc3c(sc(=S)n3-c3ccccc3C)c3nc4ccccc4n23)c(OC)c1	105
CCOC(=O)c1cc(NC(=O)CSc2nc(C)nc3sc4c(c23)CCC4)cc(C(=O)OCC)c1	102
CCN(CC)c1ccc2cc(-c3nc(-c4ccc(Br)cc4)cs3)c(=Nc3ccc(Cl)cc3)oc2c1	137
Cc1noc(C)c1C(=O)N1CCCC1c1c(C)noc1C (configuration not stated)	97
CCOc1ccc(/C(O)=C2\C(=O)C(=O)N(c3nccs3)C2c2ccc(C(C)(C)C)cc2)cc1 (configuration not stated)	110
CCc1ccccc1NC(=O)CSc1nnc(C(C)N2C(=O)COc3ccccc32)n1C (configuration not stated)	101
CCOc1ccc(-n2c(C)nc3cc(C(=O)NCCCN4CCOCC4)ccc32)cc1	102
CCOc1c(C(=O)OC)sc2ccc(NC(=O)Nc3cccc(F)c3)cc12	98
Cn1nc(-c2nc(-c3ccccc3)no2)c2c1CCN(S(=O)(=O)c1ccc3c(c1)CCCC3)C2	107
O=C(C1CCN(c2nn3c(=O)c4c(nc3s2)CCCC4)CC1)N1CCN(C2CCCCC2)CC1	103
CCC(C)NC(=O)CSc1nc2c(sc(=S)n2-c2ccccc2C)c2nc3ccccc3n12 (configuration not stated)	101
O=C(N(/N=C/c1ccccc1)c1ccccc1)C(O)(c1ccc(Cl)cc1)c1ccc(Cl)cc1	101
CCOC(=O)c1ccc2c3c(onc13)-c1ccccc1C2=O	106
N#Cc1c(/N=C/c2ccccc2)oc(-c2ccccc2)c1-c1ccccc1	113
Cc1ccccc1-n1c(=S)sc2c1nc(SCc1c(F)cccc1Cl)n1c3ccccc3nc21	106
Cc1noc(C)c1C1CCCN1C(=O)c1cc(-c2cccc(Cl)c2)on1 (configuration not stated)	104

Screens: PubChem BioAssay, ICCB-Longwood Screening Facility, Harvard Medical School
